RanGTP-Impb inh: inhibitors of RanGTP-importin-beta interaction, primary screen, biochemical, FRET, CFP-Ran, YFP-importin-beta, homogeneous; Ran GTPase (GTP-bound) - importin-beta complex; AID 2216, 2009; cell-free CFP-Ran/YFP-importin-beta FRET ratio; inhibition, % (test concentration not listed); 300,000 tested, 1.1% active;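 active = most replicates above 15%; inconclusive = exactly half above 15%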;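 note: 0% = DMSO wells and 100% = Ran loaded with GDP instead of GTP; wells of about 40 µL received 100 nL stock; the first replicate is given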
T cruzi inh: inhibitors of intracellular T. cruzi growth, primary screen, luminescence, NIH3T3 host cells; T. cruzi beta-gal in NIH3T3, 90 h; inhibition, % (test concentration not listed); 300,000 tested, 1.4% active; AID 1885, 2009;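 active = mean inhibition across valid replicates above about 55%, limit read from the data; inconclusive = mean below that limit but half or more replicates reach it; inactive = mean below it, under half of replicates reach it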;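 note: signal also drops with host cell toxicity which is not excluded here; 0% = plate median of DMSO wells and 100% = zero luminescence signal; higher percent means less beta-gal luminescence so fewer parasites; stock transfer was 50 nL into about 50 µL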
AF4-AF9 inh: inhibitors of AF4 peptide binding to AF9, primary screen, biochemical, AlphaScreen, biotin-AF4 peptide, FLAG-AF9, single point; Protein AF-9 (Homo sapiens), P42568; inhibition, % at 10 µM; 350,000 tested, 0.47% active; AID 651704, 2012;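 active = every replicate reaching a set inhibition limit, whatever the replicate mean, cut at about 25% in these data; inconclusive = mean inhibition reaches that limit but some replicates miss it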;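 note: 0% = plate neutral control median and 100% = total signal loss; the record names both 10 and 1 µM as test concentration; the first replicate is given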
Target sequence (P42568 whole entry, looked up): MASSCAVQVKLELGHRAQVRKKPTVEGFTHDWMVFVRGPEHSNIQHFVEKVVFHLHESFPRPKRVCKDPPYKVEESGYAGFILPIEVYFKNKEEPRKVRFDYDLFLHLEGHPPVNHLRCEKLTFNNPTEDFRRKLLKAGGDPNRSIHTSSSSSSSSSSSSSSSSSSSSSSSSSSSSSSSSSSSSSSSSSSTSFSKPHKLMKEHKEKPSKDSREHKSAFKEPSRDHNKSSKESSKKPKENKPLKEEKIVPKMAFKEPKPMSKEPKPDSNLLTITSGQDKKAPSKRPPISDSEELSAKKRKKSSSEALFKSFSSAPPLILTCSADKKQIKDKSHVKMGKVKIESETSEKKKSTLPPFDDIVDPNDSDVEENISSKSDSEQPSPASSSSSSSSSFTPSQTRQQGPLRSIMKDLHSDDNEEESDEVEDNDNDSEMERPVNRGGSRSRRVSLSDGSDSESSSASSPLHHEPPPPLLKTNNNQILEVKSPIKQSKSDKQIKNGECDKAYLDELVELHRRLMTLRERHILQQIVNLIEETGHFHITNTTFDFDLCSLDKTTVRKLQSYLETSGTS
Bfl-1 A1 inh: caspase 3/7 activation in MEF A1-2A-BIM cells, primary screen, A1 inhibitor project, cell-based, luminescence, HTS; Caspase-Glo 3/7 luminescence, 3 h; percent of clofoctol response, vehicle zero; caspase activation, % (test concentration not listed); 330,000 tested, 0.066% active; AID 2462, 2010;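 active = over half of replicate activation scores above 10%, or exactly half above 10 with the replicate mean above 10; inconclusive = replicate mean below 10 yet half the replicates above 10; inactive = over half of replicates below 10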;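 note: wells of about 30 µL received 50 nL stock; many hits fall short of the cut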
Calb FLC: C. albicans growth inhibition with fluconazole, primary screen, CaCi-2 strain, Alamar Blue fluorescence; C. albicans CaCi-2 (fluconazole-resistant clinical isolate) + fluconazole, 48 h; growth inhibition, % (test concentration not listed); 300,000 tested, 0.57% active;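 active = most replicates above 75%; inconclusive = exactly half above 75%; inactive = most below 75%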;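 note: all wells also contain fluconazole at 8 µg/ml as a sub-toxic cotreatment; 0% = median of DMSO wells and 100% = median of geldanamycin control wells; wells of about 8 µL received 7.5 nL stock; the first replicate is given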
Beta apoptosis: inhibitors of cytokine-induced beta cell apoptosis, primary screen, luminescence; INS-1E cytokine-induced death, ATP luminescence, 48 h; percent of positive-control rescue, neutral wells zero; protection from apoptosis, % (no concentration beside the values); 300,000 tested, 0.8% active; AID 435005, 2010;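 active = all replicates at 75% or more, or half of them and the mean; inconclusive = half reach 75% but not the mean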;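 note: 0% = cytokine-treated negative control wells and 100% = positive control rescue; higher means more ATP so stronger rescue from cytokine killing; wells of about 40 µL received 100 nL stock; the first replicate is given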
rRNA inh HTS: reduced GFP signal of wild-type E. coli, primary screen, bacterial rRNA inhibitor project, GFP/RFP fluorescence, OD600, single point; E. coli WT GFP vs humanized-ribosome RFP mutants, 24 h; active compounds read low; DMSO median 0, no signal -100; GFP signal change (wild-type ribosome), % (no concentration beside the values); 350,000 tested, 1.6% active; AID 720706, 2013;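 active = significant combined selectivity score with lowered wild-type GFP, culture density cut under 30%, mutant RFP and density less affected; inactive = any of these conditions unmet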; note: one replicate is shown; some compounds called inactive have numbers as strong as hits
Vif TR-FRET: inhibitors of Vif binding to APOBEC3G peptide, primary screen, biochemical, TR-FRET, GST-Vif 1-94, biotin-A3G peptide, dose response retest (AID 1117319); Virion infectivity factor (Human immunodeficiency virus type 1 group M subtype B (isolate …; TR-FRET GST-Vif / biotin-A3G peptide binding; higher % means a stronger effect; test concentration not given here; strong numbers were not always called active; one-dose inhibition, %; IC50 in µM for titrated hits; 260,000 tested, 0.57% active;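 active = above the screen mean plus three standard deviations and confirmed in dose response; inconclusive = results disagree or hit not tested in dose response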;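 note: Vif residues 1-94 fused to GST binding biotinylated APOBEC3G peptide 110-148; 0% = full assay without inhibitor and 100% = GST in place of GST-Vif; retest series ran down from 100 µM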
rRNA inh HTS OD600: also measured in rRNA inh HTS; calls as there; OD600 change, %; measured here: OD600 growth;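 optical density of the mix in the first replicate; 0 = DMSO median and -100 = no signal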
rRNA inh HTS RFP: also measured in rRNA inh HTS; calls as there; RFP signal change, %; measured here: RFP humanized mutant strains;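 first replicate; 0 = DMSO median and -100 = no signal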
* marks the source's active call; other numbers are inactive results; ? = inconclusive; . = no result given. Some of the compounds tested. The share of hits here may be higher or lower than overall.

canonical_smiles,RanGTP-Impb inh,T cruzi inh,AF4-AF9 inh,Bfl-1 A1 inh,Calb FLC,Beta apoptosis,rRNA inh HTS,rRNA inh HTS OD600,rRNA inh HTS RFP,Vif TR-FRET
Nc1nccc(/C=C/c2c(Cl)cccc2Cl)n1,-0.4,21,-0.7,0.2,39,-18,4,-5,0.4,-8%
COC(=O)c1c(NC(=O)CSc2n[nH]c(N)n2)sc(C)c1C,1.1,-9,.,-0.5,3,2,.,.,.,4%
CC(=O)Nc1ccc(C(=O)NCC(=O)OCc2c(F)cccc2Cl)cc1,-0.2,-13,-1.8,1.1,-2,-1,11,14,1.0,-5%
O=C(/C(=C/O)N=Nc1ccccc1)c1cccs1,-0.2,17,0.9,0.7,-4,5,-18,-26,6.8,-16%
COc1ccc(N=C2C(=O)Nc3ccc(C)c(Br)c32)cc1,0.4,-4,-3.0,0.4,-13,-5,2,1,2.1,6%
O=[N+]([O-])c1ccc2c(c1)C(O)n1nc(-c3ccccc3)nc1S2 (centres undefined),-0.3,19,-4.1,-0.6,1,-1,3,10,-6.9,6%
Cc1onc(-c2c(F)cccc2Cl)c1C(=O)OCc1nnc(-c2ccccc2)o1,.,.,-15,0.1,.,-1,-20,-34,4.4,.
Cc1ccc(-n2nc3c(N4CCC(C(=O)NCCc5cccs5)CC4)nnc(C)c3c2C)cc1,-2.2,35,-0.5,0.1,-7,7,7,9,0.7,.
CCOc1ccc(OCC)c(S(=O)(=O)n2ccnc2C)c1,-7.5,6,-0.7,-0.5,-3,-4,18,31,10,.
C=CCSc1nc2sc3c(c2c(=O)n1CC)CCC3,-1.7,2,-0.7,0.6,-36,.,-20,-27,4.3,6%
COc1ccc(Cl)cc1S(=O)(=O)N1CCCC(C(=O)NCC(N)=O)C1 (centres undefined),2.0,-6,.,-0.5,-5,4,.,.,.,.
CCSC1=NC(C)(C)C=C(C)N1,1.7,-30,.,0.1,-1,-6,.,.,.,3%
CCN1CCN(C(c2cccs2)C(C)NC(=S)NC2CCCCC2)CC1 (centres undefined),7.3,1,1.7,0.2,-6,3,9,-4,-2.1,-9%
COc1ccc(S(=O)(=O)Cc2ccc(C(=O)N3CCN(C4CCCCC4)CC3)o2)cc1,-3.0,45,.,0.3,-1,5,.,.,.,?
COc1cc(NC(=O)c2ccco2)c(OC)cc1NC(=O)c1cc(OC)c(OC)c(OC)c1,1.4,-13,.,-0.1,4,.,.,.,.,18%
COc1ccccc1C(=O)COC(=O)Cc1n[nH]c(=O)c2ccccc12,2.7,4,-3.4,0.4,-12,-3,13,9,-0.2,-15%
CCOP(=O)(c1ccc(N(C)C)cc1)C(O)c1c(Cl)cccc1Cl (centres undefined),?,-7,.,0.3,22,-3,.,.,.,-1%
COc1cc(/C=N/NC(=O)c2cccc(N3CCCC3=O)c2)ccc1O,4.5,-14,0.0,0.5,8,-1,2,2,-2.0,3%
CC(C)C(NS(=O)(=O)c1cccs1)C(=O)NCc1ccc2c(c1)OCO2 (centres undefined),-0.3,-5,-6.4,-0.6,-8,-2,1,-5,1.4,?
CC(C)CN1CCC(=O)N([C@H](CO)Cc2ccccc2)CC1,-0.6,-20,-1.2,0.2,1,-4,-16,-21,-3.9,.
CCN1C(=O)C(CC(=O)Nc2c(C)cccc2C)SC1=Nc1ccc(S(N)(=O)=O)cc1 (centres undefined),-2.8,-5,.,1.1,-6,-1,.,.,.,-4%
Cc1ccc(S(=O)(=O)N2CCCCC2)cc1NC(=O)CSc1nnnn1C,1.8,-1,1.2,0.8,-4,0,-1,7,2.2,.
COc1ccc(C2CC(=O)c3cnc(NC(=O)c4ccco4)nc3C2)cc1 (centres undefined),-2.4,0,-0.6,-0.7,-2,-2,17,16,7.1,.
COCCNc1nc2c(-c3cccc(C(F)(F)F)c3)nnn2c2ccccc12,-2.8,-8,2.3,0.6,-5,1,6,7,-0.8,-74%
CC(C)(C)NC(=O)C(=O)NNC(=O)c1cccc([N+](=O)[O-])c1,-6.8,-2,-1.0,-0.4,-13,-1,27,19,1.6,-9%
COc1ccc(-c2n[nH]c(C)c2-c2ccccc2OC)c(O)c1,-2.3,-10,0.0,0.4,6,21,-19,-21,2.1,9%
CCn1c(SCC(=O)c2ccc(O)c(O)c2)nnc1-c1ccccc1,0.1,-15,.,0.3,0,2,.,.,.,12%
CCN(CC)C(=O)c1sc(NC(=O)c2ccco2)c(C#N)c1C,5.1,-23,.,0.2,1,0,.,.,.,17%
COc1ccc(OC)c2sc(NC(=O)CCS(=O)(=O)c3ccccc3)nc12,1.7,-61,0.6,0.2,-2,25,4,0,1.2,.
Cn1c(NC(=O)c2ccccc2)nc2ccccc21,5.3,3,2.6,-13,25,10,-21,-34,-2.1,5%
CCN(CC)S(=O)(=O)c1ccc2c(c1)nc(SCC(=O)N1CCOCC1)n2-c1ccccc1OC,4.6,13,.,1.2,6,4,.,.,.,6%
CCOc1ccc(-c2nc(N)ncc2-c2ccccc2)c(O)c1,-4.0,8,.,-1.2,?,-1,.,.,.,-12%
N#Cc1ccc(CSc2nnc(-c3cccnc3)o2)cc1,0.2,-16,-0.2,1.6,-2,-7,9,5,-1.6,2%
CC(C)CCNC(=O)c1ccc2nc[nH]c2c1,2.1,-9,.,0.0,0,0,.,.,.,6%
Cn1c(=O)c2c(nc(N/N=C/c3cccnc3)n2Cc2ccc(F)cc2)n(C)c1=O,0.2,-9,-0.1,-1.4,0,.,4,7,0.8,.
CCN1CCN(C(c2cccc(OC)c2)c2sc3nc(C)nn3c2O)CC1 (centres undefined),-6.0,-12,.,0.2,-4,-4,.,.,.,.
CC1CC(C)(C)NC(=O)O1 (centres undefined),0.3,-13,.,-0.2,4,-1,.,.,.,8%
O=C(CCCC(=O)N1CCCC1)N1CCCC1,-0.1,-22,-3.5,0.2,9,2,12,18,-0.8,7%
O=S(=O)(NC1CCCC1)c1cccc(S(=O)(=O)N2CCC(n3nnc4ccccc43)CC2)c1,5.6,21,.,1.4,-28,2,.,.,.,2%
Cc1cccc(CCNC(=O)C2CCC(CNS(=O)(=O)c3cccs3)CC2)c1 (centres undefined),0.4,1,-2.6,-0.3,-5,7,17,-3,0.2,.
Cn1c(-c2ccccc2)cc2c3no[n+]([O-])c3ccc21,3.5,73*,.,0.7,6,106*,.,.,.,-5%
CC(C)c1ccc(NC(=O)COc2ccc(F)cc2C(=O)c2cnn(-c3ccccc3)c2)cc1,-3.2,12,.,-0.6,6,-4,.,.,.,-7%
O=C(COc1ccc(/C=N/NS(=O)(=O)c2ccccc2)cc1)Nc1ccc(F)cc1,4.8,4,.,0.8,-1,-11,.,.,.,4%
CC(C)Oc1ccc(C2CC(=O)N(Nc3ccc([N+](=O)[O-])cc3[N+](=O)[O-])C2=O)cc1 (centres undefined),1.5,13,-0.1,-0.1,-5,47,17,16,0.0,-2%
C=CCSC1=NC(N)=C(C#N)C2(CCCCC2)C1C(N)=O (centres undefined),9.3,-20,.,0.2,-2,.,.,.,.,28%
Cc1nc([N+](=O)[O-])c(Br)n1CC(=O)c1ccc(Cl)cc1,0.9,-15,.,-0.3,1,-6,.,.,.,2%
O=C(c1ccccc1NS(=O)(=O)c1ccc(Cl)cc1)N1CCc2ccccc21,-1.1,-19,1.6,-0.4,?,-5,-32,-28,-9.1,17%
Cc1nc(Nc2ccccc2Cl)sc1C(=O)Nc1ccccc1,?,19,-2.5,0.8,?,11,-42,-70,-15,5%
O=C(CS(=O)(=O)c1ccccc1)Nc1ccc(S(=O)(=O)Nc2ccccn2)cc1,-2.6,7,-0.2,0.0,-10,-3,3,6,-0.3,23%
CCCCC(O)(CCCC)C(=O)NN(C(=O)OC)c1ccccc1,2.3,7,3.1,1.2,-17,-2,11,9,7.0,-4%
C=CCn1c(CCSCc2ccc(OC)c(C)c2)n[nH]c1=S,-1.2,6,-10,0.7,-2,1,-19*,-2.9*,0.7*,0%
CCN1CCN(c2nc3c(C)cccn3c(=O)c2/C=C(\C#N)S(=O)(=O)c2ccc(C)cc2)CC1,-49,10,.,0.2,-59,-8,.,.,.,10%
Nc1nc[nH]c(=O)c1N=Cc1ccccc1,-0.3,-6,-1.8,1.3,2,-5,9,5,2.3,.
Cc1ccc(Cn2nc(C)c(NC(=O)c3cc(-c4ccc5c(c4)OCO5)on3)c2C)cc1,-0.5,15,.,0.8,-8,10,.,.,.,-12%
COc1ccc(Oc2nnnn2-c2ccccc2)cc1,1.4,-22,.,0.1,-16,4,-3,-8,0.0,-2%
COc1cccc(NC(=O)c2ccccc2-c2nc(-c3ccccc3)no2)c1,.,.,.,-0.2,-20,-9,.,.,.,6%
CC(C)(C)NC(=O)CSc1nncn1NCc1c(Cl)cccc1Cl,0.7,5,.,?,-12,-2,.,.,.,.
O=C(c1ccc(CS(=O)Cc2ccccc2Cl)o1)N1CCN(C2CCCCC2)CC1 (centres undefined),1.7,5,3.3,0.2,-1,-1,-2,-1,-0.7,.
